# Screens: PubChem, National Center for Advancing Translational Sciences (NCATS)
# VACV Venus inh = qHTS for Stage-Specific Inhibitors of Vaccinia Orthopoxvirus: Venus Reporter Primary qHTS. AID 720580, 2013. Vaccinia virus Venus reporter expression, fluorescence. 0.46% of 330,000 active. Potency, µM (doses to about 36.5 µM), for the others: at the highest dose activity change, negative = inhibition, actives largely listed as inhibitors; active means well fitted inhibition curve with a large enough effect; inconclusive means small, poorly fitted or top-dose-only effect; inactive means no such curve, though single readings can be large or run the other way; tested in A549 cells; note: nearly all actives have a fitted effect of over 30% in size; inactives centre near -10
# VACV mCherry inh = qHTS for Stage-Specific Inhibitors of Vaccinia Orthopoxvirus: mCherry Reporter Primary qHTS; Vaccinia virus mCherry reporter infection, fluorescence; about a quarter of the inactives have no number; Potency, µM (series often up to 36.5 µM), for inactives: at the top dose activity change, negative = inhibition, usual class: inhibitors; 0.63% of 310,000 active; AID 720579, 2013; active = well fitted inhibition curve with a large enough effect; inconclusive = small, poorly fitted or top-dose-only effect; inactive = no such curve, though single readings can be large or run the other way; tested in A549 cells; note: nearly all actives have a fitted effect of over 35% in size; inactives centre near -10
# The depositor's hits bear a star; i = inactive; ? = inconclusive; . = not tested or not shown; & = joins results of further samples. % is set by controls: 0 for no effect and ±100 for the full control effect; potency is the fitted concentration of half-maximal effect.
Compound	VACV Venus inh	VACV mCherry inh
COc1ccc(C)cc1NC(=O)NC1CCCCCCC1	-14%	-9%
CCCC(C)C(=O)Nc1nc(C)c(-c2csc(Nc3cc(OC)ccc3OC)n2)s1 (stereo unspecified)	?	?
C=CCOc1ccc(NC(=O)C2CC(=O)N(C(C)C)C2)cc1 (stereo unspecified)	-9%	-13%
COc1ccc(C(C)NC(=S)NCc2ccc(F)cc2)cc1 (stereo unspecified)	-6%	0%
CC1=C(C(=O)Nc2ccc(F)cc2)C(c2ccncc2)C2=C(CCCC2=O)N1 (stereo unspecified)	-13%	-9%
O=C(Cc1cccs1)NCCS(=O)(=O)N1CCN(c2ccccc2)CC1	-22%	-3%
O=C1c2cccc3cccc(c23)C(=O)N1CCc1ccccc1	2%	-9%
COc1ccc(CNC(=O)CN2CCN(C(c3ccccc3)c3ccccc3)CC2)cc1	-17%	-18%
O=C(COc1ccccc1F)N/N=C1\CCCc2ccccc21	-15%	-13%
O=C(NCCc1ccccc1)c1cccc(S(=O)(=O)N2CCCCC2)c1	-17%	-23%
CCN1CCN(CCCNC(=O)Cn2nc(C)n3c(cc4cc(C)ccc43)c2=O)CC1	-7%	-4%
Cc1c(C(=O)N2CC3CCC2C3)sc2ncnc(NCc3ccco3)c12 (stereo unspecified)	-17%	-2%
O=C(CSc1nnc(-c2ccco2)o1)N1c2ccccc2CCc2ccccc21	-20%	-5%
CC(=O)O[C@H]1[C@H]2O[C@]23[C@@H]2CC[C@]4(O)C[C@@H](O)CC[C@]4(C)C2CC[C@]3(C)[C@H]1c1ccc(=O)oc1 (stereo partly specified)	0.032µM*	32µM*
Nc1ncn(-c2ncc(C(F)(F)F)cc2Cl)n1	-1%	-13%
O=C1C(=O)N(C/C=C/c2ccccc2)c2ccccc21	-14%	-12%
COc1ccc(-c2noc(CCC(=O)N3CCN(c4ccccc4Cl)CC3)n2)cc1	2%	0%
COC(=O)C1=C(C)NC(=O)C1(NC(=O)c1cc(OC)c(OC)c(OC)c1)C(F)(F)F (stereo unspecified)	-10%	-4%
CCc1ccc(N2CCn3c2nc2c3c(=O)n(C/C=C/c3ccccc3)c(=O)n2C)cc1	-11%	-14%
COc1ccc2oc(C(=O)N(C)Cc3ccc(OC(F)F)cc3)c(C)c2c1	-13%	-1%
CC(=O)N[C@@H](Cc1c[nH]c2ccccc12)C(=O)NCc1ccccc1	-9%	-25%
N#CC1(NC(=O)COC(=O)c2nc(Cl)c(Cl)c(N)c2Cl)CCCCC1	-4%	-14%
COc1ccc(N(C(=O)c2snc(C(N)=O)c2N)C(C(=O)NC2CCCC2)c2ccco2)cc1OC (stereo unspecified)	-7%	i
CCN(CCCCCCN)c1ccc2c(=O)[nH][nH]c(=O)c2c1	-1%	-6%
CC1CN(C(=O)CCC(=O)Nc2cc(F)ccc2F)c2ccccc2S1 (stereo unspecified)	-12%	-9%
CCOC(=O)N1CCN(C(=O)CSc2nc3c(cnn3-c3ccc(C)cc3)c(=O)[nH]2)CC1	-18%	i
O=C(CCC(=O)N1CCCC1)Nc1nnc(C(F)(F)F)s1	-9%	i
CC1(Cc2cc(Cl)ccc2C(F)(F)F)C(=O)Nc2cc(C(F)(F)F)ccc21 (stereo unspecified)	-24%	-19%
CSc1cnn(CCC#N)c(=O)n1	6%	9%
Cc1cc(C)cc(C(=O)Nc2c3c(nn2C(C)(C)C)CS(=O)(=O)C3)c1	-13%	-15%

# Looked up above:
# VACV Venus inh result of N#CC1(NC(=O)COC(=O)c2nc(Cl)c(Cl)c(N)c2Cl)CCCCC1 : -4%
# VACV mCherry inh result of O=C(NCCc1ccccc1)c1cccc(S(=O)(=O)N2CCCCC2)c1 : -23%
# VACV Venus inh result of O=C(CCC(=O)N1CCCC1)Nc1nnc(C(F)(F)F)s1 : -9%
# VACV mCherry inh result of O=C(COc1ccccc1F)N/N=C1\CCCc2ccccc21 : -13%

# (next part)
Compound	VACV Venus inh	VACV mCherry inh
O=C(COC(=O)CNC(=O)c1ccc(-c2ccccc2)cc1)NCc1ccco1	-9%	-21%
CC(C)c1cccc(OCCCCN(C)C)c1	-5%	-19%
Cc1ccc2oc(=O)c3cnn(CC(=O)N4CCCCC4C)c3c2c1 (stereo unspecified)	-4%	i
CCOC(=O)C1CCCN(C(=O)c2cc(Nc3ccc(OC)c(OC)c3)nc3ccccc23)C1 (stereo unspecified)	-17%	-20%
O=C(COc1ccccc1C(=O)Nc1cccc([N+](=O)[O-])c1)Nc1ccc(Br)cc1	-14%	?
Cc1ccc(-n2ncc(C(=O)NCCCN3CCN(c4cccc(Cl)c4)CC3)c2-n2cccc2)cc1	-30%	-27%
Cc1cc(=O)n2nc(N3CCCC(C(=O)NCCc4ccccc4)C3)sc2n1 (stereo unspecified)	-14%	.
COc1ccccc1C(CNC(=O)c1cccc(NS(=O)(=O)c2ccc(C)c(F)c2)c1)N1CCCC1 (stereo unspecified)	-18%	-28%
COc1cccc(-c2cc(C(F)(F)F)n3ncc(C(=O)OC(C)C)c3n2)c1	-12%	-20%
O=C(CSc1nnc(NC(=O)c2ccco2)s1)Nc1ccc(F)cc1F	-9%	0%
COc1cccc(CN2CCN(Cc3nc(C(C)C)cs3)CC2CCO)c1 (stereo unspecified)	8%	-11%
CSc1nc(-c2ccco2)nn1C(=O)c1cccs1	-6%	-12%
CC(CCc1ccccc1)N(C)CC(O)c1cccc([N+](=O)[O-])c1 (stereo unspecified)	-14%	-27%
CC(=O)Nc1ccccc1C	-14%	i
CCCc1nc2ccc(NC(=O)c3cccs3)cc2c(=O)n1Cc1ccccc1Cl	-3%	-2%
COC(=O)c1ccc2nc(-c3ccc(C)cc3)c(Cc3ccc(C)cc3)n2c1	-7%	-15%
Oc1[nH]c2ccccc2c1N=Nc1c(F)c(F)c(C(F)(F)F)c(F)c1F	-6%	-3%
CC(=O)N1CCN(CCN=CC2=C(O)CC(c3ccc(Cl)cc3)CC2=O)CC1 (stereo unspecified)	-21%	-6%
Cc1ccc(C2C3=C(CC(C)(C)CC3=O)Nc3onc(C)c32)cc1 (stereo unspecified)	?	.
CCc1ccc(Nc2cc(C(=O)NCCCN3CCOCC3)c3ccccc3n2)cc1	-25%	?
COc1cc2c(cc1OC)C(c1c(O)n(CCc3ccccc3)c(=S)[nH]c1=O)NCC2 (stereo unspecified)	-9%	-14%
O=C(NC1CCCC1)C(c1cccnc1)N(C(=O)c1csnn1)c1ccccc1Cl (stereo unspecified)	-1%	-8%
O=C(CSCC(=O)NN=Cc1ccccc1)NN=Cc1ccccc1	-10%	-1%
COCCNC(=O)c1ccc2c3n(nc2c1)-c1ccc(C)cc1CO3	-24%	-7%
Cc1ccc(NC(=O)c2nc(S(C)(=O)=O)ncc2N(Cc2ccco2)Cc2cccs2)c(C)c1	-16%	-11%
Cc1ccc(NC(=O)[C@@H]2CCCN2S(=O)(=O)c2ccccc2F)cc1	-6%	i
Cc1nc2c(-c3ccccc3)c(C)nn2c(C)c1CCC(=O)NCCc1ccccc1	-7%	-1%
COc1ccc(NC(=O)Cc2ccccc2F)cn1	-16%	-13%
COc1cc(C=NCC2OCCc3ccccc32)cc(OC)c1 (stereo unspecified)	-9%	i
COc1nnc(-c2ccc(N3CCOCC3)c(NC(=O)c3ccco3)c2)c2ccccc12	-1%	.
CCOC(=O)CC(=O)CSc1nc2c(cc1C#N)CCCCC2	-4%	i
COc1ccc(F)cc1-c1cc(C(=O)N2CCc3ccccc3C2)[nH]n1	-20%	i
COc1cc(NC(=O)C2CC(=O)N(CCc3ccccc3)C2)cc(OC)c1 (stereo unspecified)	-1%	-16%
O=C1S/C(=C\C=C\c2ccco2)C(=O)N1c1ccc(O)cc1	-14%	i
COc1ccc(Nc2ncnc3c2cnn3Cc2ccc(C)cc2)cc1	-22%	?
Cc1occc1C(=O)O/N=C(\N)c1ccc(Cl)cc1	-14%	i
COc1ccc(S(=O)(=O)N(Cc2ccccc2)c2ccccc2C(=O)N2CCOCC2)cc1	-20%	-19%
O=C(NC(Cc1ccc(F)cc1)C(=O)O)c1ccccc1 (stereo unspecified)	-11%	-7%
Cc1cc(C)cc(C(=O)N2CC(C)SC2=Nc2cccc(S(=O)(=O)N(C)C)c2)c1 (stereo unspecified)	-26%	?
COc1cccc(NC(=O)c2cccnc2)c1	-9%	-16%
CCn1c(SCc2nc3ccccc3c(=O)[nH]2)nnc1C(C)NC(=O)c1ccccc1F (stereo unspecified)	-7%	i
CC(C)CNc1nc(S(=O)(=O)c2ccccc2)c(Cl)s1	-7%	-13%
COC(=O)c1ccc(C(=O)NCC2Cc3cccc(-c4ccc(C(=O)OC)cn4)c3O2)cc1 (stereo unspecified)	-19%	-20%
O=c1c2[nH]c3ccc(F)cc3c2ncn1CCCn1ccnc1	-16%	.
COc1cccc(CN(C)CC(=O)NCc2ccc(F)cc2)c1OC	0%	i
CCCCn1c(CN2CCN(C(=O)c3ccco3)CC2)nc2c1c(=O)n(C)c(=O)n2C	3%	-9%
CC(C)C[C@H](NC(=O)c1nc[nH]c1C(=O)N[C@@H](CC(C)C)C(=O)OC(C)(C)C)C(=O)OCc1ccccc1	-21%	-22%
COC(=O)c1cccc(S(=O)(=O)N2CCC(n3nnc4cc(F)ccc43)CC2)c1	-14%	14%
CC(NC(=O)Cn1cnnn1)c1cccc(C(F)(F)F)c1 (stereo unspecified)	6%	-15%
CN1C/C(=C\c2ccc(N3CCOCC3)cc2)C(=O)/C(=C/c2ccc(N3CCOCC3)cc2)C1	0%	?
O=C(Nc1ncnc2nc[nH]c12)c1ccccc1	-13%&-4%	-8%&-6%
COc1ccc(-c2ccc(=O)n(CC(=O)Nc3cccc(O)c3)n2)cc1OC	-3%	-7%
O=C(OCCN1C(=O)c2ccccc2C1=O)c1cccc(OC(F)F)c1	-18%	.
CNC(=S)N/N=C/c1ccccc1Cl	-26%	-8%
O=C(COc1ccccc1)NCC(=O)N/N=C/c1cc(Br)ccc1OCc1ccccc1	-11%	i
COc1ccc(C2N(c3cc(Cl)ccc3OC)C(=O)C3CCCN32)c(OC)c1 (stereo unspecified)	-12%	-8%
COc1ccc(C(=O)CSc2ncn[nH]2)cc1OC	-5%	-13%
Cc1ccc(S(=O)(=O)N2CCOC23CCN(C(=O)C(=O)NCCC(C)C)CC3)cc1	-3%	i
CC(C)Cc1nc(SCC(=O)NCc2ccccc2)n[nH]1	-10%	.
COc1cccc(NC(=O)CCC2CCN(C(=O)c3cccc(NC(C)=O)c3)CC2)c1	-8%	-2%

# Part of the list above, with each value named:
CCOC(=O)CC(=O)CSc1nc2c(cc1C#N)CCCCC2
- VACV Venus inh: -4%
- VACV mCherry inh: i
COc1cccc(CN(C)CC(=O)NCc2ccc(F)cc2)c1OC
- VACV Venus inh: 0%
- VACV mCherry inh: i
Cc1ccc(S(=O)(=O)N2CCOC23CCN(C(=O)C(=O)NCCC(C)C)CC3)cc1
- VACV Venus inh: -3%
- VACV mCherry inh: i
COC(=O)c1ccc(C(=O)NCC2Cc3cccc(-c4ccc(C(=O)OC)cn4)c3O2)cc1 (stereo unspecified)
- VACV Venus inh: -19%
- VACV mCherry inh: -20%

# Continued:
Compound	VACV Venus inh	VACV mCherry inh
Cc1ccc(S(=O)(=O)N2CCOCC2)cc1NC(=O)Cn1nnc(-c2ccccc2)n1	-24%	i
O=C(O)c1ccc(NC2=C(N3CCOCC3)C(=O)c3ccccc3C2=O)cc1	6%	-9%
Cc1cccc(C(CC(=O)N2CCCC2)c2ccccc2)c1O (stereo unspecified)	-5%	.
COc1ccc(/C=N/NC(=S)Nc2ccccc2)cc1COc1ccc(F)cc1	-9%	i
O=C(NCCn1cc(SCc2ccccc2Cl)c2ccccc21)c1cccs1	-14%	-9%
COCCn1nnnc1CN1CCOCC1	-15%	i
Cc1ccc2c(C)c(C(=O)N(Cc3ccncc3)CC3CCCO3)oc2c1C (stereo unspecified)	-19%	-25%
Cc1ccc(Nc2ccc(-n3ccnc3)nn2)cc1C	?	.
CC(C)(C)C1CCN2CCCC(c3ccc([N+](=O)[O-])cc3)(C1)C21OCCO1 (stereo unspecified)	-9%	-4%
Cn1nnc2c[n+](CC(=O)c3ccc4ccccc4c3)cc(Br)c21	?	?
COc1cccc(CNCCSc2nnnn2C)c1OCc1ccccc1Cl	-8%	i
O=C(NC(=S)NCc1ccccc1Cl)c1cccs1	-13%	-6%
CCc1ccc(NCc2cc3cc4c(cc3n(CC(=O)Nc3ccc(OC)cc3)c2=O)OCO4)cc1	1%	-12%
Cc1ccc(S(=O)(=O)NNC(=O)c2ccncc2)cc1[N+](=O)[O-]	0%	-11%
CC(C)OC(=O)CC(=O)CSc1nc2c(cc1C#N)CCCCCC2	-14%	-19%
COC(=O)[C@@H]1CCCN1Cc1ccc2c(c1)CN(Cc1cccn1-c1ccc(Cl)cn1)CCO2	1%	5%
CCOc1ccc(CCNC(=O)COC(=O)Cn2cnc3c2c(=O)n(C)c(=O)n3C)cc1OCC	-15%	-13%
c1ccc(Cc2c[nH]c3ccccc23)cc1	-20%	-6%
NC(=O)CN1CCN(Cc2ccc3c(c2)OCO3)CC1	-10%	-15%
CC1CCCN(S(=O)(=O)c2ccc3[nH]c(=O)cc(C(=O)NCCc4ccc(Cl)cc4)c3c2)C1 (stereo unspecified)	-2%	-2%
